NOMO-1 viab: STK33 inhibitor candidate reducing NOMO-1 cell viability | NOMO-1 AML viability, CellTiter-Glo luminescence, 72 h | inhibition, % (concentration not given with the values) | 7.5% of 37,000 active;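 active = most replicates above 80%; inconclusive = exactly half above 80%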;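 note: wells of about 30 µL received 25 nL stock; 0% = median of vehicle wells and 100% = reference inhibitor level; the first replicate is given; inactives centre near 10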
* hit, by the source's call; ? = inconclusive.

SMILES	NOMO-1 viab
Cc1ccc(S(=O)(=O)Nc2ccc3c(c2)C(=O)N([C@@H](C)CO)C[C@@H](C)[C@@H](CN(C)Cc2ccc(C(=O)Nc4ccccc4N)cc2)O3)cc1	110*
COc1ccc(NC(=O)Cn2cc(C(=O)C(C)C)c3ccccc32)cc1	17
COc1ccccc1NC(=O)c1c(C)nc(Nc2nc3ccccc3o2)nc1C	13
CCOC(=O)c1c(NC(=O)CN2CCOCC2)sc(C(C)=O)c1C	29
Cc1cc(C)cc(NC(=O)CN(c2cc([N+](=O)[O-])ccc2C)S(C)(=O)=O)c1	24
C[C@H]1CN([C@@H](C)CO)C(=O)c2cccc(NC(=O)c3ccncc3)c2O[C@@H]1CN(C)Cc1ccccc1	13
Cc1ccnc(NC(c2cc(C)ccc2C)c2ccc3ccc(C)nc3c2O)c1 (stereo unspecified)	41
Cc1ccc(C)c(OCC(=O)Nc2cccc(C(=O)O)c2C)c1	36
Cc1noc(C)c1NC(=O)N(C)C[C@H]1OCCCC[C@@H](C)Oc2ccc(NS(=O)(=O)c3cccs3)cc2C(=O)N([C@H](C)CO)C[C@@H]1C	-4
C[C@@H]1CCCCO[C@@H](CN(C)Cc2ccc(Cl)c(Cl)c2)[C@@H](C)CN([C@H](C)CO)C(=O)c2cc(NC(=O)Nc3ccc(C(F)(F)F)cc3)ccc2O1	105*
COCCNC(=O)c1c(NC(=O)c2nc(SC)ncc2Cl)sc2c1CCCC2	138*
Cc1cc2c(cc1C)C(=O)C(c1ccccc1)=C(NCc1ccccc1)C2=O	28
Cc1cc(=O)n2c3ccccc3n(CC(O)CN3CCN(CCO)CC3)c2c1C#N (stereo unspecified)	8
CNC[C@H]1Oc2ccc(NC(=O)CCN3CCOCC3)cc2C(=O)N([C@@H](C)CO)C[C@H]1C	8
C[C@H]1CN([C@@H](C)CO)C(=O)c2cccc(NC(=O)C3CC3)c2O[C@H]1CN(C)C(=O)Nc1ccc(F)cc1	11
C[C@@H]1CN([C@@H](C)CO)C(=O)Cc2cc(NC(=O)c3ccncc3)ccc2O[C@@H]1CN(C)C(=O)Nc1ccc(F)cc1	0
CCc1nc(SCC(=O)Nc2ccnc3ccccc23)n[nH]1	-2
C[C@@H]1CN([C@@H](C)CO)C(=O)c2cccc(NC(=O)Nc3ccc(C(F)(F)F)cc3)c2O[C@H]1CN(C)S(=O)(=O)c1cccs1	88*
C[C@@H]1CN([C@@H](C)CO)C(=O)c2cccc(NC(=O)C3CC3)c2O[C@@H]1CN(C)C(=O)Nc1ccccc1	-4
COc1ccccc1NC(=O)Cn1cnc2sc3c(c2c1=O)CCC(C)C3 (stereo unspecified)	-29
Cc1noc(C)c1NC(=O)Nc1ccc2c(c1)CC(=O)N([C@H](C)CO)C[C@@H](C)[C@H](CN(C)C(=O)Nc1ccc3c(c1)OCO3)O2	15
COc1cc(NC(=O)COc2cc(C)cc(C)c2C)c(OC)cc1Cl	1
CNC[C@@H]1Oc2ccc(NS(=O)(=O)c3ccccc3)cc2C(=O)N([C@@H](C)CO)C[C@H]1C	-7
C[C@H]1CN([C@@H](C)CO)C(=O)c2cc(NC(=O)CCN3CCOCC3)ccc2O[C@H]1CN(C)C(=O)Nc1ccc(C(F)(F)F)cc1	9
CC(C)NC(=O)Nc1ccc2c(c1)C(=O)N([C@@H](C)CO)C[C@@H](C)[C@@H](CN(C)C(=O)Nc1cccc3ccccc13)O2	-5
COc1ccc(OC)c(NC(=O)c2ccccc2NS(=O)(=O)c2cccc3cccnc23)c1	-4
C[C@@H]1CCCCO[C@H](CN(C)C)[C@@H](C)CN([C@H](C)CO)C(=O)c2cc(NC(=O)c3ccncc3)ccc2O1	17
C[C@H](CO)N1C[C@H](C)[C@H](CN(C)S(=O)(=O)c2cccs2)Oc2ccc(NC(=O)Cn3cnnn3)cc2CC1=O	13
O=C(COc1ccc2ccccc2c1Br)Nc1cccnc1	52
O=S(=O)(NCCC12CC3CC(CC(C3)C1)C2)c1cccc2nsnc12	?
C[C@@H]1CCCCO[C@H](CN(C)C(=O)Nc2cccc3ccccc23)[C@@H](C)CN([C@H](C)CO)C(=O)c2cc(NC(=O)CCC(F)(F)F)ccc2O1	38
Cc1noc(C)c1NC(=O)N(C)C[C@@H]1Oc2ccc(NS(=O)(=O)c3c(C)noc3C)cc2CC(=O)N([C@H](C)CO)C[C@H]1C	9
C[C@@H]1CCCCO[C@H](CN(C)C(=O)c2ccncc2)[C@@H](C)CN([C@H](C)CO)C(=O)c2cc(NS(=O)(=O)c3ccc(F)cc3)ccc2O1	2
C[C@@H]1CN([C@@H](C)CO)C(=O)c2cccc(NS(=O)(=O)c3cccs3)c2O[C@H]1CN(C)C(=O)Nc1cccc2ccccc12	11
Cc1ccc(S(=O)(=O)/C(C#N)=C/Nc2cc(C(F)(F)F)cc(C(F)(F)F)c2)cc1	89*
Cc1ccc(-n2nc3cc(C)c(NC(=O)COc4cccc(C)c4)cc3n2)cc1	13
Cc1ccc(S(=O)(=O)Nc2ccc3c(c2)CC(=O)N([C@H](C)CO)C[C@@H](C)[C@@H](CN(C)S(=O)(=O)c2ccc(F)cc2)O3)cc1	4
O=C(O)c1ccccc1Sc1ccccc1S(=O)(=O)NC12CC3CC(CC(C3)C1)C2	23
COc1ccc(S(=O)(=O)Nc2ccc3c(c2)C(=O)N([C@H](C)CO)C[C@@H](C)[C@@H](CN(C)C(=O)NC(C)C)O3)cc1	-5
O=S(=O)(NCC(O)Cn1c2ccc(Cl)cc2c2cc(Cl)ccc21)c1ccccc1 (stereo unspecified)	113*
CCOC(=O)CSc1sc(C(=O)OCC)c2c1S(=O)(=O)N(C)c1ccccc1-2	120*
CSc1nsc(SCc2cnc(C)nc2N)n1	14
COc1c(OC2OC(CO)C(O)C(O)C2O)cc(O)c2c1OC(c1ccccc1)CC2=O (stereo unspecified)	6
O=C(O)CC(Cn1[nH]nnc1=S)c1ccccc1 (stereo unspecified)	-9
C[C@@H]1CCCCO[C@@H](CN(C)Cc2ccc3c(c2)OCO3)[C@@H](C)CN([C@H](C)CO)C(=O)c2cc(NC(=O)c3ccncc3)ccc2O1	3
Cn1cc(SCC(=O)O)c2ccccc21	13
C[C@H](CO)N1C[C@H](C)[C@@H](CN(C)Cc2ccccc2)Oc2ccc(NS(=O)(=O)c3cccs3)cc2C1=O	-15
C[C@@H]1CN([C@H](C)CO)C(=O)c2cc(NC(=O)CCCCCC(=O)Nc3ccccc3N)ccc2O[C@H]1CN(C)S(=O)(=O)c1cccs1	2
O=C(CC1(O)C(=O)Nc2c(C(F)(F)F)cccc21)c1ccco1 (stereo unspecified)	66
C[C@@H]1CN([C@@H](C)CO)C(=O)c2cccc(NS(=O)(=O)c3ccc(F)cc3)c2O[C@H]1CN(C)C	-7

(list continues)
SMILES	NOMO-1 viab
O=c1c(O)c(-c2ccccc2)oc2cc(O)ccc12	30
C[C@@H]1CN([C@@H](C)CO)C(=O)Cc2cc(NC(=O)NC3CCCCC3)ccc2O[C@@H]1CN(C)Cc1ccc(C(=O)O)cc1	17
C[C@@H]1CN([C@@H](C)CO)C(=O)c2cccc(NC(=O)CCCCCC(=O)Nc3ccccc3N)c2O[C@@H]1CN(C)S(=O)(=O)c1ccccc1	104*
C[C@@H]1CN([C@@H](C)CO)C(=O)c2cccc(NC(=O)c3nc4ccccc4s3)c2O[C@H]1CN(C)S(=O)(=O)c1ccc(Cl)cc1	93*
C[C@@H]1CCCCO[C@H](CN(C)Cc2ccc(Cl)c(Cl)c2)[C@@H](C)CN([C@H](C)CO)C(=O)c2cc(NC(=O)Nc3cccc4ccccc34)ccc2O1	33
Cc1ccc(S(=O)(=O)N(C)C[C@H]2Oc3ccc(NS(=O)(=O)c4ccc(F)cc4)cc3C(=O)N([C@H](C)CO)C[C@H]2C)cc1	23
C[C@@H]1CN([C@H](C)CO)C(=O)c2cc(N(C)C)ccc2O[C@@H]1CN(C)S(=O)(=O)c1ccccc1	19
Cc1noc(C)c1S(=O)(=O)Nc1ccc2c(c1)CC(=O)N([C@H](C)CO)C[C@H](C)[C@H](CN(C)C(=O)NC1CCCCC1)O2	-4
CCOC(=O)c1c(NC(=S)Nc2cc(OC)c(Cl)cc2OC)sc(C)c1-c1ccccc1	21
Cc1cc(C(=O)Nc2cccc3c2O[C@H](CN(C)Cc2ccc(C(=O)Nc4ccccc4N)cc2)[C@@H](C)CN([C@H](C)CO)C3=O)n(C)n1	63
C[C@H](CO)N1C[C@H](C)[C@@H](CN(C)C(=O)Nc2ccc(C(F)(F)F)cc2)Oc2c(cccc2N(C)C)C1=O	4
C[C@H]1CN([C@@H](C)CO)C(=O)Cc2cc(NC(=O)Nc3ccc4c(c3)OCO4)ccc2O[C@@H]1CN(C)C(=O)Nc1ccc(F)cc1	-3
C[C@H](CO)N1C[C@H](C)[C@H](CN(C)S(C)(=O)=O)Oc2c(NC(=O)Nc3ccc(C(F)(F)F)cc3)cccc2C1=O	30
CC(C)NC(=O)Nc1ccc2c(c1)C(=O)N([C@H](C)CO)C[C@@H](C)[C@@H](CN(C)S(=O)(=O)c1cn(C)cn1)O2	-10
C[C@@H]1CCCCO[C@@H](CN(C)C(=O)NC2CCCCC2)[C@@H](C)CN([C@H](C)CO)C(=O)c2cc(NC(=O)Nc3ccc4c(c3)OCO4)ccc2O1	8
COc1cccc(N2C(=O)C(CC(=O)Nc3ccc(F)cc3)N(C3CCCCC3)C2=O)c1 (stereo unspecified)	-2
CNS(=O)(=O)c1ccc(C(F)(F)F)cc1S(=O)c1ccccc1C(=O)O (stereo unspecified)	-5
C[C@@H]1CN([C@@H](C)CO)C(=O)c2cc(NS(=O)(=O)c3cccs3)ccc2O[C@H]1CN(C)S(=O)(=O)c1ccccc1	7
Cc1noc(C)c1S(=O)(=O)Nc1ccc2c(c1)C(=O)N([C@@H](C)CO)C[C@H](C)[C@H](CN(C)Cc1ccncc1)O2	19
O=C(NCc1ccccn1)c1nn2c(C(F)(F)F)cc(-c3ccccc3)nc2c1Cl	3

Next part, starting with the last five of the part before.
SMILES	NOMO-1 viab
COc1cccc(N2C(=O)C(CC(=O)Nc3ccc(F)cc3)N(C3CCCCC3)C2=O)c1 (stereo unspecified)	-2
CNS(=O)(=O)c1ccc(C(F)(F)F)cc1S(=O)c1ccccc1C(=O)O (stereo unspecified)	-5
C[C@@H]1CN([C@@H](C)CO)C(=O)c2cc(NS(=O)(=O)c3cccs3)ccc2O[C@H]1CN(C)S(=O)(=O)c1ccccc1	7
Cc1noc(C)c1S(=O)(=O)Nc1ccc2c(c1)C(=O)N([C@@H](C)CO)C[C@H](C)[C@H](CN(C)Cc1ccncc1)O2	19
O=C(NCc1ccccn1)c1nn2c(C(F)(F)F)cc(-c3ccccc3)nc2c1Cl	3
Cc1noc(C)c1S(=O)(=O)Nc1ccc2c(c1)C(=O)N([C@H](C)CO)C[C@@H](C)[C@@H](CN(C)C(=O)Nc1ccc(F)cc1)O2	5
C[C@@H]1CN([C@H](C)CO)C(=O)c2cc(NS(=O)(=O)c3ccc(Cl)cc3)ccc2O[C@H]1CN(C)Cc1ccc(C(=O)Nc2ccccc2N)cc1	44
C[C@@H]1CN([C@H](C)CO)C(=O)c2cccc(NC(=O)C3CC3)c2O[C@@H]1CN(C)S(C)(=O)=O	9
COc1ccc(NC(=O)N(C)C[C@H]2Oc3ccc(NC(=O)Nc4cccc5ccccc45)cc3CC(=O)N([C@H](C)CO)C[C@H]2C)cc1	8
CNC[C@H]1Oc2ccc(NS(=O)(=O)c3cn(C)cn3)cc2C(=O)N([C@H](C)CO)C[C@H]1C	12
O=C(CSc1nc2ncccc2[nH]1)NCc1ccccc1	29
CS(=O)(=O)NCCCNc1ccc(C(F)(F)F)cc1[N+](=O)[O-]	26
N#Cc1c(NC(=O)Cn2cnc3ccccc3c2=O)oc(-c2ccccc2)c1-c1ccccc1	1
C[C@H]1CN([C@@H](C)CO)C(=O)Cc2cc(NC(=O)Nc3ccccc3)ccc2O[C@@H]1CN(C)Cc1ccc(Cl)c(Cl)c1	31
C[C@@H]1CCCCO[C@@H](CN(C)S(=O)(=O)c2ccc(Cl)cc2)[C@@H](C)CN([C@H](C)CO)C(=O)c2cc(NS(=O)(=O)c3cn(C)cn3)ccc2O1	22
COc1cc(C2OC[C@@H]3[C@@H](c4cc(OC)c(O)c(OC)c4)OC[C@H]23)cc(OC)c1O (stereo partly specified)	14
COc1ccc(S(=O)(=O)Nc2ccc3c(c2)C(=O)N([C@@H](C)CO)C[C@H](C)[C@@H](CN(C)Cc2ccc(C(=O)Nc4ccccc4N)cc2)O3)cc1	33
O=C(CSc1nc(-c2ccc(Cl)cc2)cc(C(F)(F)F)n1)c1ccccc1	32
CC(C)NC(=O)Nc1cccc2c1O[C@@H](CN(C)S(=O)(=O)c1ccccc1)[C@H](C)CN([C@@H](C)CO)C2=O	14
CC(C)NC(=O)Nc1cccc2c1O[C@H](CN(C)Cc1ccc3c(c1)OCO3)[C@H](C)CN([C@H](C)CO)C2=O	12
C=CCn1c(SCC(N)=O)nnc1-c1ccco1	31
C=CCNc1nc(C)nc(OC)n1	-6
COc1ccc(CN(C)C[C@H]2Oc3ccc(NC(=O)Nc4ccc5c(c4)OCO5)cc3CC(=O)N([C@H](C)CO)C[C@H]2C)cc1	4
CNC[C@@H]1Oc2ccc(NS(=O)(=O)c3ccccc3)cc2C(=O)N([C@@H](C)CO)C[C@@H]1C	-5
C[C@@H]1CN([C@H](C)CO)C(=O)Cc2cc(NC(=O)Cc3ccccc3)ccc2O[C@@H]1CN(C)C(=O)Nc1ccc(F)cc1	32
Cc1[nH]c(=S)c(C#N)c(C)c1CCC#N	-12
COC(=O)c1c(NC(=O)c2ccc(N(C)S(=O)(=O)c3ccc(C)cc3)cc2)sc2c1CCCC2	-18

Reprinted from above, 4 compounds:
SMILES	NOMO-1 viab
CNC[C@@H]1Oc2ccc(NS(=O)(=O)c3ccccc3)cc2C(=O)N([C@@H](C)CO)C[C@@H]1C	-5
C[C@@H]1CN([C@H](C)CO)C(=O)Cc2cc(NC(=O)Cc3ccccc3)ccc2O[C@@H]1CN(C)C(=O)Nc1ccc(F)cc1	32
Cc1[nH]c(=S)c(C#N)c(C)c1CCC#N	-12
COC(=O)c1c(NC(=O)c2ccc(N(C)S(=O)(=O)c3ccc(C)cc3)cc2)sc2c1CCCC2	-18

These rows are one share of the data; count on the stated rates, not on these rows.
